Screens: PubChem, Johns Hopkins Ion Channel Center
KCNQ2 block – KCNQ2 channel blockers in CHO-K1 cells – cell-based, FluxOR thallium flux, B-score, primary screen (AID 2156). actives 1.1% (n = 310,000). 20 min; stronger effect = lower value; only compounds with negative scores are shown here; some inactives read as strong as hits. B-score at 10 µM. O88943;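 active means fluorescence ratio B-score at most minus 3 library SDs, with starting brightness B-score within 2 library SDs, cut at about -5.5 in these data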
Target sequence (O88943 whole entry, looked up): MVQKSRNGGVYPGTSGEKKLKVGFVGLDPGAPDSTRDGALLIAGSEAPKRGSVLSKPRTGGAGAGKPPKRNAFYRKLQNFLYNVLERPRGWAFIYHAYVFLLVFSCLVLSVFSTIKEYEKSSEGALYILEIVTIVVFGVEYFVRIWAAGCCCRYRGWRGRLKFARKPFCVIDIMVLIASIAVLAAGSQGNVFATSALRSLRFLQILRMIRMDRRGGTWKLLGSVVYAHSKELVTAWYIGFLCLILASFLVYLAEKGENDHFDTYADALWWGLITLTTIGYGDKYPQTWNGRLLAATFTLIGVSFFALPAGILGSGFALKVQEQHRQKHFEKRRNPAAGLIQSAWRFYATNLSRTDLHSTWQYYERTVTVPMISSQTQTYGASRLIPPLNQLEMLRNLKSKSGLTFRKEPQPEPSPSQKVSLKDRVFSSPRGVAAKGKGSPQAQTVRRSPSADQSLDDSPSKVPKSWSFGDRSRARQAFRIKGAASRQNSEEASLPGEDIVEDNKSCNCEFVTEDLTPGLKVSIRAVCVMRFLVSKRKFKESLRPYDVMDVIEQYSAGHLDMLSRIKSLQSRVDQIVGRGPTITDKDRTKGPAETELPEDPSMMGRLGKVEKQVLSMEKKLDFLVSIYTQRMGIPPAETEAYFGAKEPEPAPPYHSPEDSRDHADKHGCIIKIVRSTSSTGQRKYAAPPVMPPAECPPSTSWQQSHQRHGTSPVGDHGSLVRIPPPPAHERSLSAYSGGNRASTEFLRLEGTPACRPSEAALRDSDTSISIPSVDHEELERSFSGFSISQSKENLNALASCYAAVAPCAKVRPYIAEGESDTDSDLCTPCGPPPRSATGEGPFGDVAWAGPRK
KCNQ2 block baseline – second read-out of KCNQ2 block, no call of its own (marks repeat the call); B-score; measured here: initial fluorescence intensity artifact check;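 brightness before thallium and not channel activity; 0 = typical well and far values either way flag optical interference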
* marks the source's active call; other numbers are inactive results; i = inactive. The list is partial; the hit share may differ from the screen's.

SMILES | KCNQ2 block | KCNQ2 block baseline
Cc1cc(C)c2c(n1)nn1c(C)c(CCC(=O)NCc3ccco3)c(C)nc21 | i | -2.6
O=C(COc1ccc([N+](=O)[O-])cc1)Nc1ccc(S(=O)(=O)N2CCOCC2)cc1 | i | -0.07
CC1=C(C)CC(C(=O)NCCCN2CCCC2=O)C(C(=O)O)C1 (stereo not given) | i | 0.21
COc1ccc(CCNC(=O)CSc2ccc(Br)cc2)cc1OC | i | -1.3
CCc1ccc(C(=O)COC(=O)CNC(=O)c2cccs2)cc1 | i | 0.73
CCOc1ccccc1NC(=O)C(CC)Sc1nc2ccncc2[nH]1 (stereo not given) | i | -1
COc1ccc(C2Nc3ccccc3C(=O)N2c2ccccc2)cc1CN1CCOCC1 (stereo not given) | i | -1.4
C=C(C)CSc1nc2ncccc2[nH]1 | i | -0.34
O=C(NCCc1ccco1)C(=O)NCC1OCCCN1S(=O)(=O)c1ccccc1 (stereo not given) | i | 0.21
O=C(Nc1ccc(N2CCCC2)c(Cl)c1)c1ccc(Br)o1 | i | 0.46
OCc1c[nH]c(=S)n1CCOc1cccc(C(F)(F)F)c1 | i | -0.54
COCCn1c(SCc2ccccc2)nc2c1c(=O)[nH]c(=O)n2C | i | 0.05
COc1cccc(/C=N/NC(=O)Cn2nc(C)c([N+](=O)[O-])c2C)c1O | i | -0.32
O=C(CSc1ccccc1)N1CCN(S(=O)(=O)c2ccccc2F)CC1 | i | -0.56
COc1ccc(CCn2c(C)nc3ccccc3c2=O)cc1OC | i | 0.22
Cc1ncc(CN2CCC(CO)(CCOc3ccccc3)CC2)s1 | i | 2.8
Cc1ccc(O)c(CNc2ccc(S(=O)(=O)Nc3nccs3)cc2)c1 | i | -0.45
Cc1[nH]n(-c2ccccc2)c(=O)c1C(C[N+](=O)[O-])c1ccccc1Cl (stereo not given) | i | -0.07
O=C(NCCN1CCOCC1)c1ccc2ccccc2n1 | i | -2.2
CNC(=O)C1CC(=O)N(Cc2ccc3c(c2)OCO3)C(=Nc2ccc(OC)cc2)S1 (stereo not given) | i | 0.56
O=C(NCC1CCCN(Cc2ccc3nonc3c2)C1)c1ccc(F)cc1 (stereo not given) | i | 0.45
CN(CC(=O)Nc1ccccc1N1CCOCC1)S(=O)(=O)c1ccc(F)cc1 | i | 1.4
CC(=O)Nc1ccc(NC(=O)COc2ccc(-c3ccc(C#N)cc3)cc2)cc1 | i | 1.1
Cc1ccc(NC(=O)c2cc(C)n(-c3cccc(C)c3)c2C)cc1 | i | 1.1
CN1C(=O)/C(=C/c2coc3ccc(O)cc3c2=O)SC1=S | i | 0.21
CC(C)C(C)NC(=O)CN1C(=O)NC(c2ccccc2)(c2ccccc2)C1=O (stereo not given) | i | -0.65
COc1cc(C(C)=O)ccc1OCC(=O)Nc1ccccc1N1CCCC1 | i | -1.6
CC(C)CC(=O)NC(=S)Nc1ccc(Cl)cn1 | i | 0.55
COC(=O)c1ccccc1CC1SC(N)=NC1=O (stereo not given) | i | -0.31
O=C(NCC1CCCO1)C1CCN(CC2CCCCC2)CC1 (stereo not given) | i | 0.49
CC(CCc1ccccc1)NC(=O)CCN1N=C(c2ccccc2)CCC1=O (stereo not given) | i | 1
O=C(Nc1cn(-c2ccccc2)nc1-c1ccc(F)cc1)c1ccccc1 | i | 0.67
CC(C)(C)c1ccc(C(=O)NCCOc2ccccc2F)cc1 | i | 0.68
COc1cccc(-n2c(C)cc(/C=C3\C(=N)N4N=C(CC(=O)N5CCOCC5)SC4=NC3=O)c2C)c1 | i | -0.62
COc1ccc(OC)c(CN2CCCC(C(=O)c3ccccc3SC)C2)c1 (stereo not given) | i | -2
O=C(O)c1cc(S(=O)(=O)N(Cc2ccccc2)c2cccc(C(F)(F)F)c2)ccc1Cl | i | 0.37
CC(=O)c1ccc(NC(=O)CCC(=O)OCC(=O)c2cccc([N+](=O)[O-])c2)cc1 | i | -2.7
CCOCCn1c(CN2CCCC(C)C2)nc2c1c(=O)n(C)c(=O)n2C (stereo not given) | i | 0.98
COc1cccc(CNC(=O)CC2C(=O)NCCN2Cc2ccoc2)c1OC (stereo not given) | i | -0.92
CC(OC(=O)c1cccs1)C(=O)Nc1nc(-c2ccccc2)cs1 (stereo not given) | i | -0.31
COC(=O)c1nccnc1C(=O)Nc1ccccc1N1CCOCC1 | i | 0.04
O=C(Nc1ccc(-c2n[nH]c(=S)o2)cc1)c1ccccc1Br | i | -0.84
O=C(Cc1cccs1)N/N=C/c1ccccn1 | i | 0.38
COc1cccc(C(=O)Nc2ccc3c(c2)C(=O)NC3=O)c1 | i | -0.67
O=C(NC1CCCC1)c1cccc(NC(=O)c2ccco2)c1 | i | -0.27
Cc1ccc(C(=O)C[n+]2cc(Br)cc(Br)c2)cc1 | i | 1.3
Cc1ccc(NC(=O)Nc2ccc3c(c2)nc(C)n3C)cc1C | i | 0.45
Cc1c(Cc2ccccc2)sc(NC(=O)/C=C/c2cccc3ccccc23)c1C(N)=O | i | 0.23
Cn1c(=O)c2c(SCCN3CCOCC3)nc(C3CCCC3)nc2n(C)c1=O | i | 1.1
COC(=O)C(Sc1nc(C)cc(C)c1C#N)c1ccccc1 (stereo not given) | i | 1.2
Cn1[nH]c(C(F)(F)F)c(C=NCc2ccc(Cl)cc2)c1=O | i | 2.2
Cn1nc(C2CC2)cc1NC(=O)CC(CC(=O)O)c1ccccc1 (stereo not given) | i | -1.2
COc1ccc2nc(NC(=O)c3ccccc3-c3ccccc3C(=O)O)sc2c1 | i | -1.6
O=C(O)COc1ccccc1/C=N/NC(=O)CSc1nnc(SCc2ccc(Cl)cc2)s1 | i | 1.2
CC(=O)c1ccc(-n2c(-c3cc(-c4ccco4)[nH]n3)n[nH]c2=S)cc1 | i | -1.3
O=C(NCC(=O)N1CCN(S(=O)(=O)c2ccccc2C(F)(F)F)CC1)c1sc2ccccc2c1Cl | i | -0.01
CCOC(=O)N1CCN(c2ccc3nnnn3n2)CC1 | i | 3.1
O=C(CCCn1c(SCC(=O)NC2CCCCC2)nc2ccccc2c1=O)NCC1CCCO1 (stereo not given) | i | 2.2
CC(C)c1ccc(O)c(NC(=S)NC(=O)c2ccc3c(c2)OCO3)c1 | i | -0.54
CC1(C)Cc2noc(N)c2C(C)(C)N1OC(=O)c1ccccc1 | i | 0.55

Next section; it opens with the seven that closed the last part.
SMILES | KCNQ2 block | KCNQ2 block baseline
O=C(O)COc1ccccc1/C=N/NC(=O)CSc1nnc(SCc2ccc(Cl)cc2)s1 | i | 1.2
CC(=O)c1ccc(-n2c(-c3cc(-c4ccco4)[nH]n3)n[nH]c2=S)cc1 | i | -1.3
O=C(NCC(=O)N1CCN(S(=O)(=O)c2ccccc2C(F)(F)F)CC1)c1sc2ccccc2c1Cl | i | -0.01
CCOC(=O)N1CCN(c2ccc3nnnn3n2)CC1 | i | 3.1
O=C(CCCn1c(SCC(=O)NC2CCCCC2)nc2ccccc2c1=O)NCC1CCCO1 (stereo not given) | i | 2.2
CC(C)c1ccc(O)c(NC(=S)NC(=O)c2ccc3c(c2)OCO3)c1 | i | -0.54
CC1(C)Cc2noc(N)c2C(C)(C)N1OC(=O)c1ccccc1 | i | 0.55
CCN(CC)C(=O)c1sc(NC(=O)c2ccoc2C)c(C(=O)OC)c1C | i | -1.8
O=C(N/N=C/c1cccc2ccccc12)c1cccs1 | i | 0.04
Cc1ccc(S(=O)(=O)Cn2nnnc2C(c2ccc(F)cc2)N2CCC(C(N)=O)CC2)cc1 (stereo not given) | i | -2.7
Cc1nn(-c2cccc(Cl)c2)c2nc(-c3ccncc3)cc(C(=O)N3CCOCC3)c12 | i | -1.1
Cc1ccc(OCCNC(=O)CCC(=O)N2CCOCC2)cc1 | i | 0.66
Cc1oc(-c2ccc(Cl)cc2)nc1CS(=O)CC(=O)NCCCN1CCCC(C)C1 (stereo not given) | i | 2.4
COc1ccc(-c2cc(C(=O)N3CCN(c4ccccc4)CC3)c3ccccc3n2)cc1 | i | -0.3
COCCCNc1nc2nonc2nc1N(C)CC1CCCN1C (stereo not given) | i | 0.55
CCCc1cc(=O)[nH]c(Nc2ccc(N3CCCCC3)cc2)n1 | i | 2.8
CCCCn1nnnc1SCC(=O)N1CCOCC1 | i | 0.52
O=C(CCCn1c(=S)[nH]c2cc3c(cc2c1=O)OCO3)N1CCN(C2CCCCC2)CC1 | i | 0.01
O=C(CC1c2ccccc2Oc2ccccc21)Nc1ccccc1F | i | 0.13
O=C(NCCc1ccccc1F)c1cccc2cccnc12 | i | 0.12
Cc1ccc2nc(SCC(=O)Nc3nonc3C)[nH]c2c1 | i | -0.18
CC(/C=N/NC(=O)c1n[nH]c2c1CCC2)=C\c1ccccc1 | i | -1.4
CNc1nc(C)c(C(C)(C)C)s1 | i | 1.9
O=C(Nc1nnc(S(=O)(=O)N2CCCCC2)s1)c1ccccc1Br | i | -1.4
CCOn1c(=O)c(-c2cc(OC)ccc2OC)[n+]([O-])c2ccccc21 | i | -0.1
CCOC(=O)c1cc2c(ccn2C)n1CC(=O)N1CCN(c2ccccc2OC)CC1 | i | -0.67
CCCCNC(=O)CSc1nnc(Cc2ccccc2)n1CC | i | 2.2
Cc1ccccc1C(=O)Nc1ccc2nc3n(c(=O)c2c1)CCCC3 | i | 0.48
Cc1ccc(C2=NCCNC2=O)c(C)c1 | i | -0.49
COc1ccc(-c2c[n+]3c(n2-c2ccccc2)CCCCC3)cc1 | i | 0.43
N#CCc1ccc(NC(=O)/C=C/c2ccc([N+](=O)[O-])o2)cc1 | i | -0.56
O=C(Nc1c2c(nn1-c1ccc(Cl)cc1)CS(=O)(=O)C2)C1CC1 | i | 2.1
CCOC(=O)C(=O)Cc1nc2ccccc2s1 | i | 0.43
O=c1cccc2c1c1cc[nH]c3ccc(=O)n2c31 | i | -3.2
CCCNc1c(NS(=O)(=O)c2ccc(C3CCCCC3)cc2)c(=O)oc2ccccc12 | i | -0.67
C=CCN1C(=O)c2oc3ccccc3c(=O)c2C1c1ccc(O)c(OC)c1 (stereo not given) | i | 0.43
Cc1ccc(OCC(=O)Nc2ccccc2N2CCCC2)c(C)c1 | -5.6* | 0.81*
C#CCn1ccc(O)c(Cc2c(F)cccc2Cl)c1=O | i | -0.01
COCCn1c(SCC(=O)Nc2sccc2C(N)=O)nc2cc(Cl)ccc2c1=O | i | 0.36
CCOc1ccc(OCc2ccc(C(=O)N(C)c3ccccc3)o2)cc1 | i | 1.6
O=C(CCCN1C(=O)CCC1=O)Nc1cccc(C(F)(F)F)c1 | i | 0.6
Cc1cccc(-c2nc3ccc(C(=O)NCCN4CCN(C)CC4)cc3nc2-c2cccc(C)c2)c1 | i | 0.07
COc1ccccc1NC(=O)N1CCCC1C(=O)Nc1nnc(C(C)C)s1 (stereo not given) | i | 1.2
COC(=O)c1sc(S(=O)(=O)Nc2ccc3cn[nH]c3c2)c(C(=O)OC)c1C | i | -1.1
C=CCc1cc(S(=O)(=O)c2ccc(O)c(CC=C)c2)ccc1O | i | -0.25
COc1cccc(/C=N/NC(=O)CNC(=O)c2cccnc2)c1O | i | 0.03
COc1cccc(CNC(=O)CS(=O)(=O)Cc2nc(-c3ccc(C)cc3)oc2C)c1OC | i | 0.14

Complete entries, looked up by structure. Screens in order: KCNQ2 block, KCNQ2 block baseline
`CCOn1c(=O)c(-c2cc(OC)ccc2OC)[n+]([O-])c2ccccc21` is listed with i, -0.1
`CCOc1ccccc1NC(=O)C(CC)Sc1nc2ccncc2[nH]1` (stereo not given) is listed with i, -1
`O=C(NCC1CCCN(Cc2ccc3nonc3c2)C1)c1ccc(F)cc1` (stereo not given) is listed with i, 0.45
`Cc1ccc(C(=O)C[n+]2cc(Br)cc(Br)c2)cc1` is listed with i, 1.3
`O=C(CSc1ccccc1)N1CCN(S(=O)(=O)c2ccccc2F)CC1` is listed with i, -0.56

Next section.
SMILES | KCNQ2 block | KCNQ2 block baseline
COc1ccc(Cl)cc1NC(=O)COC(=O)Cc1cccs1 | i | -0.55
N#CC1=C(N)C(C#N)(C#N)C(c2ccncc2)C2CN(C(=O)OCc3ccccc3)CC=C12 (stereo not given) | i | -0.08
COCC(C)n1c(C)cc(C(=O)COC(=O)/C=C/c2cccc(F)c2)c1C (stereo not given) | i | -0.02
CCn1nccc1C(=O)Nc1cccc(C)c1C | i | 1.2
CCOc1ccc(CN2CCNC(=O)C2CC(=O)N(C)CC2CCOCC2)cc1 (stereo not given) | i | 0.71
COc1cccc(-c2nc(CS(=O)(=O)CC(=O)NCCc3ccc(OC)c(OC)c3)c(C)o2)c1 | i | 0.46
Cc1ccccc1C(=O)/C=C1/c2ccccc2CC(C)(C)N1C | i | -1.8
O=C(c1ccc(F)cc1)N1CCN(C2CCC(c3ccccc3)CC2)CC1 (stereo not given) | i | 0.83
N#Cc1c(NC(=O)CCN2C(=O)c3ccccc3C2=O)oc(-c2ccccc2)c1-c1ccccc1 | i | 0.16
CCN(Cc1ccc(OC)c(F)c1)C(=O)c1cc2ccccc2o1 | i | 0.01
COC(=O)CCCC(=O)NCC1(N(C)Cc2ccccc2)Cc2ccccc2C1 | i | 1.5
O=C(N/N=C/c1ccncc1)c1ccc(COc2cccc3cccnc23)cc1 | i | 3
Cc1cc(C)n(-c2cccc(C(=O)O)c2)n1 | i | 0.87
COc1cc(OC)c(-n2cc(-c3ccc(Cl)cc3)[nH]c2=O)cc1Cl | i | -0.82
CCOC(=O)c1sc2nc(C)nc(NCCc3ccc(S(N)(=O)=O)cc3)c2c1C | i | 0.78
O=C(NCc1ccncc1)Nc1ccccc1 | i | 0.72
O=C1/C(=C/c2ccccc2[N+](=O)[O-])COc2ccccc21 | i | -0.24
CN(c1ccc(C(=O)NCc2cccs2)cc1)S(=O)(=O)c1ccccc1 | i | 0.1
C=CCn1c(=O)/c(=C\c2ccsc2)s/c1=C(/C#N)C(=O)NCCN1CCOCC1 | i | 0.06
CC1(C)CC(=O)C(C=NCCN2CCN(C3CC(=O)N(c4ccc(F)cc4)C3=O)CC2)=C(O)C1 (stereo not given) | i | 4.3
